StopGo reporter: FMDV 2A StopGo reporter, luciferase signal. human cells with a luciferase reporter of 2A StopGo recoding; control for the full effect not named in the record. actives 1.2% (n = 410,000). Potency, µM (titrated, usually from 57.9 µM), inactives show at the highest dose signal change, negative = less light; active = well fitted falling curve with a large enough effect; inconclusive = small, poorly fitted or top-dose-only effect; inactive = no such curve, though single readings can be large or run the other way; tested in HEK293T cells; further: on the % scale 0 is the no-effect control and ±100 the full control effect; nearly all actives have a fitted effect of over 45% in size; luciferase light after 4 h
SARS PLP yeast: blocks SARS-CoV papain-like protease in a yeast assay; Potency, µM (series often up to 32.9 µM), without a hit: top-dose activity, positive = growth rescue; S. cerevisiae expressing SARS-CoV PLpro, growth rescue; control for the full effect not named in the record; actives 0.19% (n = 330,000); active means well fitted rising curve with a large enough effect; inconclusive means small, poorly fitted or top-dose-only effect; inactive means no such curve, though single readings can be large or run the other way; further: 0% is about no effect; nearly all actives have a fitted effect of over 55% in size; growth read by luminescence after 48 h
RE007 growth inh: less growth of the S. pombe RE007 Vpr strain; S. pombe RE007 Vpr strain, BacTiter-Glo ATP luminescence, 24 h; control for the full effect not named in the record; AID 651644; Potency, µM (titrated, usually from 92.2 µM), inactives show top-dose activity change, negative = less growth; actives 0.21% (n = 360,000); active = well fitted falling curve with a large enough effect; inconclusive = small, poorly fitted or top-dose-only effect; inactive = no such curve, though single readings can be large or run the other way;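 further: on the % scale 0 is the no-effect control and ±100 the full control effect; nearly all actives have a fitted effect of over 50% in size; the assay follows cell death caused by Vpr and the record does not say whether a fall means rescue or toxicity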
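Fission yeast RE007 carrying one integrated HIV-1 vpr copy, seeded at OD 0.01 in PMG+AL medium with 23 nL pinned compound. Grown 24 h at 30 degrees; viability read by BacTiter-Glo luminescence after 5 min.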
Starred values were filed as active, the others as inactive; ? = inconclusive; [ ] = remark or other dose. Potency means the concentration at half of the fitted maximal effect.

SMILES	StopGo reporter	SARS PLP yeast	RE007 growth inh
CN(C(=O)COC(=O)COc1ccc2ccccc2c1)c1c(N)n(Cc2ccccc2)c(=O)[nH]c1=O	-19%	1%	-2%
Cc1cc(O)c2c(c1O)C(=O)[C@]13C(=C2O)C(=O)[C@@H]2[C@@H](O)[C@H]1[C@@H]1[C@H](O)[C@H]3C(=O)C3=C(O)c4c(O)cc(C)c(O)c4C(=O)[C@]312	?	11%	-2%
CC1C2Cc3ccc(O)cc3[C@]1(C)CCN2CCc1ccccc1 (stereo partly drawn)	-20%	-7%	-9%
Cc1ccc(NC(=O)c2nc[nH]c2C(=O)NCCCCCNC(=O)OC(C)(C)C)cc1	?	-9%	5%
O=C(NCc1cccc(F)c1)c1cccc2c1C(=O)c1ccc(N3CCC(Cc4ccccc4)CC3)cc1S2(=O)=O	-24%	-1%	11%
CC1CCCN(C(=O)c2ccc(Cl)c(S(=O)(=O)N3CCCCCC3)c2)C1 (stereo not drawn)	4%	0%	5%
CCN(CC)S(=O)(=O)c1ccc(N2CC(C(=O)NC3(C)CCS(=O)(=O)C3)CC2=O)cc1 (stereo not drawn)	-11%	2%	-3%
CC(=O)c1ccccc1NC(=O)COc1ccc(N(C)S(=O)(=O)c2ccc(C)c(C)c2)cc1	?	-14%	6%
CCN(CC)CCCNC(=O)c1ccc2c3n(nc2c1)-c1ccc(Cl)cc1CO3	43%[activator]	2%	-13%
CCCCn1c(N)c(N(CCOC)C(=O)c2cc(-c3ccc(C)cc3)nc3ccccc23)c(=O)[nH]c1=O	13%	2%	8%
COc1ccc(-c2nc(NC(=O)Cn3cnnn3)sc2C)cc1	-20%	0%	-1%
COc1ccc(Nc2c(-c3ccc(C)cc3)nc3cnccn23)cc1	-20%	-5%	6%
COc1ccc2[nH]c3c(c2c1)CCN1C(=O)C(CC(=O)NCCc2ccccn2)C[C@H](C(=O)N2CCOCC2)[C@@]31C (stereo partly drawn)	-18%	-2%	1%
Cc1ccc(C)c(OCCC(=O)N(C)CC(=O)Nc2c(C)cccc2C)c1	-13%	-4%	9%
COc1ccccc1NS(=O)(=O)c1cccc(C(=O)NCC(c2cccs2)N2CCOCC2)c1 (stereo not drawn)	-12%	4%	-3%
CCN1C(=O)[C@@H]2[C@@H](c3ccc(-c4ccc(C(C)=O)cc4)c(OC)c3)N3CCCC[C@@]3(C(=O)OC)[C@@H]2C1=O	0%	-7%	2%
C=CCN(Cc1ccc(Cl)s1)C(=O)CNC(=O)CNC(=O)c1ccc(Cl)cc1Cl	?	8%	-7%
CCCCCCCCc1nc(SC(C)C(=O)O)n[nH]1 (stereo not drawn)	-16%	0%	?
COc1ccc([C@@H]2CC=C(C(=O)O)[C@H](c3ccccc3F)N2S(=O)(=O)c2ccc(C)cc2)cc1OC	4%	3%	1%
COc1ccc(CN(C)CC(=O)Nc2ccccc2C(=O)NC2CC2)cc1	-7%	-2%	0%
COc1ccc(C(=O)NCCc2ccc(Cl)cc2)cc1S(=O)(=O)N1CCCCC1C (stereo not drawn)	0%	-9%	-9%
Cc1ccc(S(=O)(=O)NOCc2ccccc2)cc1	30%[activator]	-26%	-26%
CCOc1ccc(NC(=O)c2sccc2-n2cccc2)cc1	11%	-4%	-10%
COc1cc(-c2nc3ccc(C)cn3c2NCc2ccccc2)ccc1-c1cccc(Cl)c1	?	1%	-22%
COc1ccc(NC(C)C(=O)Nc2cccc(S(=O)(=O)N3CCOCC3)c2)cc1OC (stereo not drawn)	?	-1%	8%

(more compounds)
SMILES	StopGo reporter	SARS PLP yeast	RE007 growth inh
O=C(NCc1ccccc1CN1CCCC1)c1cccc(S(=O)(=O)Nc2ccc(F)cc2)c1	21%	0%	-3%
Cc1ccccc1NC(=O)N1CCN(c2ncccn2)CC1	-6%	-1%	2%
CCCCn1c(N)c(N(CCOC)C(=O)Cn2c(=O)cnc3ccccc32)c(=O)[nH]c1=O	-2%	-3%	21%
O=C(CCC(=O)N1CCN(S(=O)(=O)c2ccc3ccccc3c2)CC1)Nc1cc(Cl)cc(Cl)c1	-6%	1%	-2%
Cc1ccc(CNC(=O)COC(=O)c2ccc(Br)o2)cc1	-15%	1%	3%
CCOC(=O)c1[nH]c(C)c(C(=O)OCC(=O)N(Cc2ccccc2)C(C)C)c1C	0%	0%	14%
COc1ccc(C(C)(C)C)cc1NC(=O)COC(=O)C1=NNC(=O)CC1	-2%	-3%	22%
CC(NC(=O)c1ccccc1)C(=O)OCn1nnc2ccccc2c1=O (stereo not drawn)	?	9%	22%
COc1ccc(NC(=O)COC(=O)CNS(=O)(=O)/C=C/c2ccccc2)cc1OC	0%	3%	9%
CC(NC(N)=O)C(=O)NCC(=O)OCc1ccccc1 (stereo not drawn)	4%	1%	-13%
O=C(CCl)N1CCN(S(=O)(=O)Cc2ccccc2)CC1	28µM*	3%	8%
Cc1ccc(OCCNC(=O)c2cc(C3CC3)nc3c2cnn3C(C)C)cc1	-29%	3%	4%
O=c1[nH]c2cc(NCCO)c([N+](=O)[O-])cc2[nH]1	-12%	0%	9%
COc1ccc(OC)c(S(=O)(=O)N2CCN(C(=O)c3cc(C4CC4)nn3-c3ccccc3)CC2)c1	-24%	-6%	-5%
N#CCCNS(=O)(=O)c1ccc(C(=O)OCC(=O)Nc2ccc3c(c2)OCO3)cc1	13%	-2%	6%
O=C(COC(=O)CCC(=O)c1cccs1)NC(=O)c1ccc(OC(F)F)cc1	-8%	0%	-1%
CC(C)N(C(=O)[C@H]1C[C@H](CC(=O)NCCCN(C)C)C(=O)N2CCc3c([nH]c4ccc(Cl)cc34)[C@]12C)C(C)C	-14%	-8%	6%
CCC(OC(=O)C(CC(C)C)NC(=O)c1ccccc1)C(=O)Nc1nnc(C)s1 (stereo not drawn)	-22%	-10%	15%
COc1cc(/C=C(\CCC(=O)O)c2nc3ccccc3s2)ccc1OCC(=O)Nc1c(Cl)cccc1Cl	-9%	1%	3%
O=C(NCC1CCCO1)c1cc(C(=O)c2ccc(Cl)cc2Cl)c[nH]1 (stereo not drawn)	17%	26%	11%
CCN1CCCC1CNC(=O)C1CCN(C(=O)c2cc3sccc3n2Cc2ccc(F)cc2)CC1 (stereo not drawn)	-17%	1%	-3%
CC[C@]12c3[nH]c4cc(-c5ccco5)ccc4c3CCN1C(=O)[C@@H](CC(=O)NCc1cccc(C(F)(F)F)c1)C[C@@H]2C(=O)N1CCN(C(=O)c2ccco2)CC1	?	5%	5%
O=C1NCCn2nc3ccccc3c21	-6%	-3%	-12%
COC(=O)C1CCN(C(=O)CN2C(=O)NC(CC(C)C)C2=O)CC1 (stereo not drawn)	6%	-1%	32%
Cc1ccc(CNC(=O)COC(=O)C2CC2)cc1	10%	-5%	-6%

Other results.
SMILES	StopGo reporter	SARS PLP yeast	RE007 growth inh
COc1ccc(C(C#N)(CC(=O)O)c2cnccn2)cc1OC (stereo not drawn)	-21%	-4%	-12%
O=C(NN=C1CCCC1)c1ccccc1OCCOc1ccccc1	-11%	-6%	8%
COc1c2ccoc2c(OC[C@@H](OC(C)=O)C(C)(C)O)c2oc(=O)ccc12	-10%	-17%	16%
O=C(NCc1ccc2c(c1)OCO2)C(=O)NCC(c1ccco1)N1CCN(c2ccccc2)CC1 (stereo not drawn)	?	2%	1%
COc1ccc2sc(-c3ccccc3OC)c(-c3ccc(OCCN4CCOCC4)cc3)c2c1	0%	-24%	-1%
CCCn1c(N)c(C(=O)CSc2nnc(N)s2)c(=O)[nH]c1=O	-24%	1%	2%
CN(C)S(=O)(=O)c1ccc(N2CCCC2)c(C(=O)NNC(=O)COc2cccc(F)c2)c1	2%	-1%	-1%
COc1ccc(S(=O)(=O)Nc2cc(C)on2)cc1NC(C)=O	-6%	8%	-8%
C[C@H](CO)N1C[C@H](C)[C@@H](CN(C)S(=O)(=O)c2cccs2)Oc2ccc(NS(=O)(=O)c3ccc(F)cc3)cc2C1=O	6%	2%	11%
COC(=O)[C@@]1(Cc2ccccc2)[C@H]2C(=O)N(Cc3ccccc3)C(=O)[C@H]2[C@H]2CN=C(SCC(=O)c3ccccc3)N21	3%	25%	-22%
O=C(NC1CCN(C(=S)NCCc2ccccc2)CC1)C1CCCCC1	-11%	1%	-6%
COc1cccc(CN(C)C(=O)c2cccc(NC(=O)CC3SC(N4CCCCC4)=NC3=O)c2)c1OC (stereo not drawn)	?	1%	8%
O=C(CC1SC(N2CCOCC2)=NC1=O)Nc1ccc(Cl)c(C(F)(F)F)c1 (stereo not drawn)	?	-4%	17%
O=C(COC(=O)CCC(=O)c1cccs1)Nc1ccccc1C(F)(F)F	-9%	-1%	1%
CCOc1ccc(Oc2ccc(NS(=O)(=O)c3cc(C(=O)O)ccc3Cl)cc2)cc1	-17%	-5%	6%
CC(=O)C[C@H](O)CC(=O)[C@H]1OC(=O)[C@@H](C)CCCCc2ccccc21	-22%	1%	-3%
O=C(COC(=O)/C=C/c1ccccc1)NC(=O)NCc1ccccc1	-8%	-2%	13%
CCCCN1C(=O)C(=O)N(CC(=O)Nc2cccc(C(C)=O)c2)C1=O	-14%	0%	0%
Nc1ncnc2c1ncn2[C@@H]1O[C@H](CNCc2cn(CC(=O)NC3CC3)c3ccccc23)[C@@H](O)[C@H]1O	-6%	1%	-29%
O=C(CSc1nnc(-c2ccc(Cl)cc2)n1CC1CCCO1)NC1CCS(=O)(=O)C1 (stereo not drawn)	9%	2%	2%
COCCCn1cn[nH]c1=S	1%	7%	-1%
COc1cc(/C=C/C(=O)OCC(=O)Nc2ccc3c(c2)OCO3)ccc1O	-6%	3%	2%
COc1cc(/C=C/C(=O)OCC(=O)NC2CCS(=O)(=O)C2)ccc1OC(F)F (stereo not drawn)	-6%	-2%	10%
Cc1ccc(NC(=O)COC(=O)c2cccnc2Cl)cc1S(=O)(=O)N1CCOCC1	?	-1%	3%
Cc1cc(OCC(=O)OCC(=O)N2CC(C)CC(C)C2)ccc1Cl (stereo not drawn)	-14%	-6%	-11%
C[C@H](CO)N1C[C@H](C)[C@@H](CN(C)C(=O)Nc2ccc(C(F)(F)F)cc2)Oc2ccc(NC(=O)Nc3ccc(C(F)(F)F)cc3)cc2C1=O	-15%	0%	5%
O=C(CCC(=O)N1CCN(c2ccccc2F)CC1)c1ccc(Cl)s1	45%[activator]	-4%	-14%
COC(=O)[C@]12C(=O)NC[C@H](CN1c1ccc(Cl)c(C)c1)N2C	-8%	-8%	6%
CCOC(=O)[C@H]1[C@H]2COc3ccccc3[C@@H]2N2C(=O)CN(CC3CCCO3)C(=O)[C@@]12C (stereo partly drawn)	4%	9%	10%
Cc1ccc(CNC(=O)CN2c3cccc4cccc(c34)S2(=O)=O)cc1	-15%	1%	7%

Grouped by structure, the entries above with an NH in an aromatic ring.
SMILES	StopGo reporter	SARS PLP yeast	RE007 growth inh
CN(C(=O)COC(=O)COc1ccc2ccccc2c1)c1c(N)n(Cc2ccccc2)c(=O)[nH]c1=O	-19%	1%	-2%
Cc1ccc(NC(=O)c2nc[nH]c2C(=O)NCCCCCNC(=O)OC(C)(C)C)cc1	?	-9%	5%
CCCCn1c(N)c(N(CCOC)C(=O)c2cc(-c3ccc(C)cc3)nc3ccccc23)c(=O)[nH]c1=O	13%	2%	8%
COc1ccc2[nH]c3c(c2c1)CCN1C(=O)C(CC(=O)NCCc2ccccn2)C[C@H](C(=O)N2CCOCC2)[C@@]31C (stereo partly drawn)	-18%	-2%	1%
CCCCCCCCc1nc(SC(C)C(=O)O)n[nH]1 (stereo not drawn)	-16%	0%	?
CCCCn1c(N)c(N(CCOC)C(=O)Cn2c(=O)cnc3ccccc32)c(=O)[nH]c1=O	-2%	-3%	21%
CCOC(=O)c1[nH]c(C)c(C(=O)OCC(=O)N(Cc2ccccc2)C(C)C)c1C	0%	0%	14%
O=c1[nH]c2cc(NCCO)c([N+](=O)[O-])cc2[nH]1	-12%	0%	9%
CC(C)N(C(=O)[C@H]1C[C@H](CC(=O)NCCCN(C)C)C(=O)N2CCc3c([nH]c4ccc(Cl)cc34)[C@]12C)C(C)C	-14%	-8%	6%
O=C(NCC1CCCO1)c1cc(C(=O)c2ccc(Cl)cc2Cl)c[nH]1 (stereo not drawn)	17%	26%	11%
CC[C@]12c3[nH]c4cc(-c5ccco5)ccc4c3CCN1C(=O)[C@@H](CC(=O)NCc1cccc(C(F)(F)F)c1)C[C@@H]2C(=O)N1CCN(C(=O)c2ccco2)CC1	?	5%	5%
CCCn1c(N)c(C(=O)CSc2nnc(N)s2)c(=O)[nH]c1=O	-24%	1%	2%
COCCCn1cn[nH]c1=S	1%	7%	-1%

Compound activity: PubChem, National Center for Advancing Translational Sciences (NCATS)

A portion of the library; count on the stated rates, not on these rows.
